NS1 function inh: influenza NS1 inhibition | S. cerevisiae slowed by influenza A NS1, growth recovery by OD600 | Potency, µM (highest dose often 46.1 µM), for inactives: top-dose activity, positive = more growth | hit rate 0.4% among 270,000 | AID 2326; note: actives are rising curves; nearly all actives have a fitted effect of over 50% in size
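Read-out: OD600 growth recovery of NS1-expressing budding yeast. Cells grown overnight at 30C in -URA glucose medium, washed, resuspended and diluted 1:100 in 2% galactose assay medium, pH 6.0. Same strain lacking NS1 served as positive control.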
SARS PLP yeast: inhibitors of SARS-CoV papain-like protease in yeast. S. cerevisiae expressing SARS-CoV PLpro, growth rescue; control for the full effect not named in the record. Potency, µM (series often up to 32.9 µM), without a hit: at the top dose activity, positive = growth rescue. hit rate 0.19% among 330,000; note: 0% is about no effect; nearly all actives have a fitted effect of over 55% in size; growth read by luminescence after 48 h
* marks the source's active call; other numbers are inactive results; ? = inconclusive; nt = not tested or not shown; [ ] = another dose, or the depositor's remark. Calls come from the whole dose curve; as a rule, active means well fitted rising curve with a large enough effect; inconclusive means small, poorly fitted or top-dose-only effect; inactive means no such curve, though single readings can be large or run the other way. Potency is the fitted concentration of half-maximal effect. This is a subset (hit frequency here may not be typical).

(1) CC(=O)NC(c1ccco1)c1cc(Cl)c2ccc(N3CCCCC3)nc2c1O (configuration not stated)
(2) CN(CCOC(=O)CN1C(=O)c2ccccc2C1=O)C1=NS(=O)(=O)c2ccccc21
(3) Cc1ccc2nc3n(c(=O)c2c1)-c1ccc(Cl)cc1C(=O)NC3Cc1ccccc1 (configuration not stated)
(4) CC1CCCN(C(=O)c2cc(N3C(=O)C4C5CCC(C5)C4C3=O)ccc2Cl)C1 (configuration not stated)
(5) CC(=O)NC(c1ccco1)c1cc(Br)c2cccnc2c1O (configuration not stated)
(6) COc1ccc(-c2ccc3oc(-c4ccsc4)c(-c4ccc(Br)nc4)c3c2)cc1
entry no. | 1 | 2 | 3 | 4 | 5 | 6
NS1 function inh | nt | nt | nt | nt | nt | nt
SARS PLP yeast | -5.8% | -0.8% | 2.1% | -1.0% | -3.6% | 6.1%

(7) CCCCn1c(=S)[nH]c2ccc(N3CCOCC3)cc2c1=O
(8) Oc1ccc(COC2CCCC2)c2cccnc12
(9) COc1ccc(S(=O)(=O)N2CCCCCC2)cc1C(=O)OCC(=O)Nc1cc(C)on1
(10) Oc1ccc(COc2cccc3ccccc23)c2cccnc12
(11) O=C(c1cc(-c2ccccc2)on1)N1CCC2(CC1)OCCO2
(12) COc1cc2[nH]c(=S)nc(NC3CCCC3)c2cc1OC
entry no. | 7 | 8 | 9 | 10 | 11 | 12
NS1 function inh | nt | nt | nt | nt | nt | nt
SARS PLP yeast | 0.4% | -2.2% | 0.9% | -2.4% | 0.3% | -1.4%

(13) CC1NC(=O)c2ccccc2-n2c1nc1cc(F)ccc1c2=O (configuration not stated)
(14) Cc1cc(C)nc(NC(=O)c2ccc3c(c2)OCO3)c1
(15) O=C(COC(=O)/C=C/c1ccc(Br)o1)Nc1ccc2[nH]c(=O)[nH]c2c1
(16) O=C(NNc1nc(N2CCOCC2)nc(N2CCOCC2)n1)Nc1ccc(Cl)cc1
(17) OC(CNC1CCCCCCC1)c1ccccc1 (configuration not stated)
(18) Cc1ccsc1C1CC(=O)OC2=C1C(=O)CC(C)(C)C2 (configuration not stated)
entry no. | 13 | 14 | 15 | 16 | 17 | 18
NS1 function inh | nt | nt | nt | nt | nt | nt
SARS PLP yeast | 2.5% | -2.5% | 1.8% | -0.8% | -3.1% | -7.9%

(19) Cc1cc2nc(-c3ccc(SCC(=O)NC(C)C)nc3)[nH]c2cc1C
(20) Cc1ccc2c(c1)NC(=O)c1cccc([N+](=O)[O-])c1CO2
(21) Fc1cccc(CNc2ncnc3ccc(-c4cccnc4)cc23)c1
(22) O=C(O)c1cccnc1SC1CC(=O)N(c2cccc3ccccc23)C1=O (configuration not stated)
(23) Fc1cccc(CNc2ncnc3ccc(-c4ccccc4Cl)cc23)c1
(24) CSc1cccc(NC(=O)c2ccccn2)c1
entry no. | 19 | 20 | 21 | 22 | 23 | 24
NS1 function inh | nt | nt | nt | nt | nt | nt
SARS PLP yeast | -0.2% | 1.4% | -3.0% | -2.7% | 0.0% | -6.8%

(25) Oc1cc2c(cc1O)[C@H]1c3ccccc3CN[C@@H]1CC2
(26) Cn1cc(C(=O)NCc2cccnc2)c(=O)c2cc(S(=O)(=O)N3CCCCCC3)ccc21
(27) CCOC(=O)N1CCC(N(CCN(C)C)C(=S)Nc2ccc(OCC)cc2)CC1
(28) Cc1cccc2cc(/C=N/NC(=O)CN3CCCCC3)c(Cl)nc12
(29) CCNc1nc(=S)nc(NCc2ccccc2)[nH]1
(30) O=C(COc1cccc2ccccc12)Nc1cc(S(=O)(=O)N2CCOCC2)ccc1N1CCOCC1
entry no. | 25 | 26 | 27 | 28 | 29 | 30
NS1 function inh | nt | nt | nt | nt | nt | nt
SARS PLP yeast | 4.1% | 2.8% | 0.2% | -4.7% | -0.8% | 0.6%

(31) O=C(Sc1cccc2cccnc12)c1ccc(F)cc1
(32) COc1cc([N+](=O)[O-])cc(/C=N/NC(=O)CC#N)c1O
(33) Cc1ccc2c(c1)-n1c(nc3ccccc3c1=O)C(Cc1ccc(O)cc1)NC2=O (configuration not stated)
(34) COc1ccc(S(=O)(=O)N2CCN(S(=O)(=O)c3ccc(OC)cc3)CC2)cc1
(35) COc1ccc2[nH]c3c(c2c1)CCN1C(=O)C(CC(=O)NC/C=C(\C)CCC=C(C)C)C[C@H](C(=O)N2CCCCC2)[C@@]31C (some centres not stated)
(36) Nc1c2c(nc3ccc(Br)cc13)N(C1CCCCC1)CC2
entry no. | 31 | 32 | 33 | 34 | 35 | 36
NS1 function inh | nt | nt | nt | nt | nt | nt
SARS PLP yeast | -1.3% | 7.08µM* | 0.7% | 5.9% | -4.1% | -1.7%

(37) CCC(=O)NC(c1cccs1)c1cc(Br)c2cccnc2c1O (configuration not stated)
(38) COc1ccc(S(=O)(=O)NC(N)=NCCc2ccc(OC)c(OC)c2)cc1
(39) O=C(NCCc1ccccc1)C(=O)NCC1CCNCC1
(40) Cc1ccc(C)n1-c1ccc(C(=O)NCc2cccnc2)cc1
(41) COc1ccccc1/C=N/NC(=O)c1ccc(NC(=O)c2cccc([N+](=O)[O-])c2)cc1
(42) CCC(=O)Nc1ccc(C(=O)CN2CCC(C)CC2)cc1
entry no. | 37 | 38 | 39 | 40 | 41 | 42
NS1 function inh | nt | nt | nt | nt | nt | nt
SARS PLP yeast | -0.3% | 0.7% | 1.0% | 0.3% | -1.4% | 1.3%

(43) Cc1ccc(C)c(-n2nnnc2SCC(=O)c2c(N)n(C)c(=O)n(C)c2=O)c1
(44) O=C(CN1C(=O)CC(c2ccccc2)S(=O)(=O)c2ccccc21)N1CCOCC1 (configuration not stated)
(45) CC(=C\c1ccccc1)/C=C1/SC(=S)N(CCC(=O)Nc2ccccn2)C1=O
(46) CC(C)CC1NC(=O)c2ccccc2-n2c1nc1cc(F)ccc1c2=O (configuration not stated)
(47) Cc1nccc2[nH]c(=O)c(C(=O)NC(C)CCc3ccccc3)cc12 (configuration not stated)
(48) COc1ccc(C[C@H](C(=O)O)N2C(=O)c3ccc(C(=O)O)cc3C2=O)cc1
entry no. | 43 | 44 | 45 | 46 | 47 | 48
NS1 function inh | nt | nt | nt | nt | nt | nt
SARS PLP yeast | -7.1% | 0.9% | 1.0% | -0.8% | 2.6% | -4.9%

(49) CC1(C)CC(NC(=S)NCc2ccc3c(c2)OCO3)CC(C)(C)N1
(50) O=C1CSC(=S)N1N1C(=O)c2cccc([N+](=O)[O-])c2C1=O
(51) O=C(O)c1ccc2c(c1)C(=O)N([C@H](Cc1ccc(Cl)cc1)C(=O)O)C2=O
(52) O=C(Cc1ccc(Nc2nc(=S)[nH]c3ccccc23)cc1)NC1CCCCC1
(53) Cc1nc(N2CCCCC2)sc1C(=O)c1ccc(Cl)c([N+](=O)[O-])c1
(54) O=C(Cn1nc(-c2ccc3c(c2)OCCO3)ccc1=O)Nc1cccc(NC(=O)c2ccccn2)c1
entry no. | 49 | 50 | 51 | 52 | 53 | 54
NS1 function inh | nt | nt | nt | nt | nt | nt
SARS PLP yeast | -1.6% | 6.4% | 1.6% | 1.3% | 0.4% | 3.8%

(55) Cc1ccc(C2CC(c3cccs3)=NN2C(=O)CSc2nc(=O)n3ccc(C)cc3n2)cc1 (configuration not stated)
(56) Cc1cc(C(=O)CSc2cccc[n+]2[O-])c(C)n1-c1ccc(Br)cc1
(57) Cn1c2cc(B(O)O)sc2c2cnn(Cc3c(F)cccc3F)c(=O)c21
(58) O=C1Nc2ccccc2S/C1=C\C(=O)N1CCCC1
(59) Cc1noc(C)c1S(=O)(=O)Nc1ccc(C(=O)N2CCC(C)CC2)cc1
(60) CCc1ccc(N2C(=O)NC(=O)/C(=C/c3ccsc3)C2=O)cc1
entry no. | 55 | 56 | 57 | 58 | 59 | 60
NS1 function inh | nt | nt | nt | nt | nt | nt
SARS PLP yeast | 4.0% | -0.8% | 3.1% | 1.2% | -1.9% | 1.6%

(61) C#CCOCCOCCOCCNc1nc(N2CCN(C(=O)CCCCCCCCCCNC(=O)[C@H](CO)n3cc(CCCCCN)nn3)CC2)nc(N2CCN(C(=O)CCCCCCCCCCNC(=O)[C@H](CCCN=C(N)N)n3cc(C[C@@H](C)CC)nn3)CC2)n1
(62) Cc1c(-c2cc[n+]([O-])cc2)oc2ccc(Br)cc2c1=O
(63) Cc1cccc(-c2ccc3ncnc(N(C)Cc4ccco4)c3c2)c1
(64) Cc1ccc2c(c1)sc1ncc(NC(=O)c3ccc(F)cc3)c(=O)n12
(65) CCN1CCN(C2CC(=O)NC2=O)CC1 (configuration not stated)
(66) COc1ccc(CN2C(=O)/C(=C/c3ccc(-c4ccc(Cl)c(C(=O)O)c4)o3)SC2=S)cc1
entry no. | 61 | 62 | 63 | 64 | 65 | 66
NS1 function inh | nt | nt | nt | nt | nt | nt
SARS PLP yeast | 3.3% | 0.6% | -3.6% | 2.8% | 2.6% | 0.3%

(67) CC(C)CC1NC(=O)c2cc(Cl)ccc2-n2c1nc1ccccc1c2=O (configuration not stated)
(68) Cc1ccccc1[C@]1(C)ON(c2ccccc2C(F)(F)F)C1=O
(69) CNC[C@@H]1Oc2ccc(NC(=O)Nc3cccc4ccccc34)cc2C(=O)N([C@@H](C)CO)C[C@@H]1C
(70) CCn1c(SCC(=O)NCc2ccco2)nnc1-c1ccncc1
(71) CC(=O)C1=C(O)C(=O)N(c2cccnc2)C1c1ccc([N+](=O)[O-])cc1 (configuration not stated)
(72) COc1ccc(Nc2cc(C(=O)NCc3ccccn3)c3ccccc3n2)c(OC)c1
entry no. | 67 | 68 | 69 | 70 | 71 | 72
NS1 function inh | nt | nt | nt | nt | nt | nt
SARS PLP yeast | -6.3% | 2.1% | -5.0% | 0.4% | 0.8% | -4.3%

Six structures already listed, sorted by number of heavy atoms, low to high:
(65) CCN1CCN(C2CC(=O)NC2=O)CC1 (configuration not stated)
(68) Cc1ccccc1[C@]1(C)ON(c2ccccc2C(F)(F)F)C1=O
(70) CCn1c(SCC(=O)NCc2ccco2)nnc1-c1ccncc1
(64) Cc1ccc2c(c1)sc1ncc(NC(=O)c3ccc(F)cc3)c(=O)n12
(66) COc1ccc(CN2C(=O)/C(=C/c3ccc(-c4ccc(Cl)c(C(=O)O)c4)o3)SC2=S)cc1
(69) CNC[C@@H]1Oc2ccc(NC(=O)Nc3cccc4ccccc34)cc2C(=O)N([C@@H](C)CO)C[C@@H]1C
entry no. | 65 | 68 | 70 | 64 | 66 | 69
NS1 function inh | nt | nt | nt | nt | nt | nt
SARS PLP yeast | 2.6% | 2.1% | 0.4% | 2.8% | 0.3% | -5.0%

Additional structures
(73) Cc1ccc(S(=O)(=O)NCc2ccc(C(=O)NCc3cccnc3)cc2)cc1
(74) O=C1[C@@H]2C3C=CC(O3)[C@@H]2C(=O)N1c1ccccc1
(75) Cc1[nH][nH]c(=O)c1N=Nc1ccccc1C#N
(76) O=C1NC(=S)N(Cc2ccco2)C(=O)/C1=C\c1cccs1
(77) COc1ccc(NC(=O)c2ccc3c(SCC(=O)O)c4c(nc3c2)CCCC4)cc1Cl
(78) ClCC1=Nc2cccc3cccc(c23)N1
entry no. | 73 | 74 | 75 | 76 | 77 | 78
NS1 function inh | nt | nt | nt | nt | nt | 0.7%
SARS PLP yeast | -1.1% | -0.3% | -1.4% | 2.1% | 2.3% | -1.2%

(79) COc1ccc(C(CC(=O)N2CCN(c3ccccc3)CC2)c2c(OC)cc(OC)c3c(-c4ccccc4)cc(=O)oc23)cc1 (configuration not stated)
(80) O=C(Cc1ccc(Cl)cc1)NNC(=O)C1CC=CCC1C(=O)O (configuration not stated)
(81) C/C=C(\C)C(=O)OC1C(C)=C2C(C1OC(=O)CCCCC)C(C)(OC(C)=O)CC(OC(=O)CCC)C1(O)C2OC(=O)C1(C)O (configuration not stated)
(82) Cc1ccc2[nH]c3c(c2c1)CN(C(=O)CN1CCN(C(=O)c2ccco2)CC1)CC3
(83) CCCCCCn1c(=O)c(C(=O)Nc2nnc(C)s2)c(O)c2ccccc21
(84) COc1ccccc1-c1csc(-n2ncc(C#N)c2N)n1
entry no. | 79 | 80 | 81 | 82 | 83 | 84
NS1 function inh | 2.8% | -1.1% | 0.5% | -3.5% | 3.4% | 18.7%
SARS PLP yeast | 1.2% | 5.4% | 0.6% | 0.0% | -0.1% | 1.0%

(85) N#Cc1ccc2c(c1)C[C@]1(c3ccsc3)OC3=C(C(=O)OC4(CCCCC4)C3)C2O1
(86) O=C(COC(=O)CC(c1ccccc1)c1ccccc1)Nc1ccc(F)c(F)c1
(87) COc1ccccc1C(=O)NNC(=S)NC(=O)c1cccs1
(88) CC1CC(C)CN(CCCNC(=O)C2CCN(c3ncnc4c3sc3cccc(F)c34)CC2)C1 (configuration not stated)
(89) COc1cc(OC)cc(C(=O)Nc2cccc(-c3ccc4nncn4n3)c2)c1
(90) C=CCC(Nc1ccccc1)c1ccc(OC)c(OC)c1 (configuration not stated)
entry no. | 85 | 86 | 87 | 88 | 89 | 90
NS1 function inh | ? | -2.2% | 3.3% | 3.1% | 3.7% | -5.4%
SARS PLP yeast | 7.6%[6.58 µM] | -2.2% | -4.8% | -2.6% | -0.1% | 2.1%

(91) CC(C)(C)c1ccccc1NC(=O)c1c(O)c2cccc3c2n(c1=O)CC3
(92) COc1cc2[nH]c(C(=O)Nc3ccc(F)cc3)cc2c(OC)c1OC
(93) CN(C)CCNC(=O)C(=O)C1C(=O)Nc2ccccc21 (configuration not stated)
(94) Cn1c2ccccc2n2c(=O)c(=O)n(CC(=O)N3CCCc4ccccc43)nc12
entry no. | 91 | 92 | 93 | 94
NS1 function inh | -1.3% | -2.4% | 2.5% | 8.7%
SARS PLP yeast | -0.2% | -4.7% | 1.8% | -1.3%

Assay outcomes deposited in PubChem BioAssay by National Center for Advancing Translational Sciences (NCATS).
